Assay outcomes (PubChem BioAssay)
eIF4H FP inh – inhibitors of RNA binding by human eIF4H; 290,000 tested, 0.94% active; eIF4H fluorescence polarization binding assay; inhibition, % at 35 µM; Q15056;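 active = 50% or more with normal probe brightness, or confirmed in later tests; inconclusive = above 50% with abnormal brightness, or retests that disagree; inactive = below 50% or failed in later tests; about a fifth of its hits are not listed in these tables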;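 note: calls also rest on retests at 20 µM and on dose response follow-up; 0% = protein and probe with vehicle and 100% = probe without protein; strong numbers were not always called active; many hits fall short of the cut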
MT1-MMP act inh – blocks activation of human MT1-MMP. P50281. HT1080 RFP-PRO-GFP cells, GFP/RFP ratio fluorescence, overnight; percent of plate control window, DMSO zero. AID 651647. GFP/RFP ratio change, % at 20 µM. 360,000 tested, 0.061% active;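 active = GFP/RFP ratio change of at least 30% with cell ATP level not reduced by more than half and red fluorescence within 50% of control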; note: strong numbers were not always called active
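Compound: 20 µM single dose, 1% DMSO / System: HT1080 RFP-PRO-GFP cells / Controls: DMSO and RFP-L50D-GFP cell wells / Read-out basis: GFP/RFP fluorescence ratio / Schedule: overnight compound exposure at 37 °C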
PABP FP inh – blocks human PABP binding to poly(A) RNA; 290,000 tested, 1% active; inhibition, % at 35 µM; AID 2014; fluorescence polarization; P11940;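 active = 50% or more with normal probe brightness, or confirmed in later tests; inconclusive = above 50% with abnormal brightness, or retests that disagree; inactive = below 50% or failed in later tests; about a fifth of its hits are not listed in these tables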;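 note: calls also rest on retests at 20 µM and on dose response follow-up; controls were probe without protein and protein plus probe with vehicle; some compounds called inactive have numbers as strong as hits; many hits fall short of the cut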
Target sequence (P11940 whole entry, looked up): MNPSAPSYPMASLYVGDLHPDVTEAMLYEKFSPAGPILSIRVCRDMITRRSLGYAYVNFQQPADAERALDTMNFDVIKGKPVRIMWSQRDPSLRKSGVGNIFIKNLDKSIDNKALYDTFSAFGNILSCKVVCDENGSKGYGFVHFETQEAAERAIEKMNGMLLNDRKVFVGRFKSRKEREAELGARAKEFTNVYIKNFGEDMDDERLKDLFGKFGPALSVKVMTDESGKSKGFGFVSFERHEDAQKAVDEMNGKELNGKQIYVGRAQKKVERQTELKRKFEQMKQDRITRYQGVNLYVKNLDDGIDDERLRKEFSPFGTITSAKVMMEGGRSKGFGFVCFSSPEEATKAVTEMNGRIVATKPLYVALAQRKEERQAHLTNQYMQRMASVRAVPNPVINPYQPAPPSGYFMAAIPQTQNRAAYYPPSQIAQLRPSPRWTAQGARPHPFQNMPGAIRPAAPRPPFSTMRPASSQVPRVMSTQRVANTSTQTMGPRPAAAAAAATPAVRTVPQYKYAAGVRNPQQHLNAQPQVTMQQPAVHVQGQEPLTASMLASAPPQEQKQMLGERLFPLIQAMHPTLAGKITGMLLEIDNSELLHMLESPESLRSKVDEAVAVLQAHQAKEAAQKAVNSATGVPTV
UUG fidelity – modulators of start codon recognition fidelity in yeast | 350,000 tested, 0.13% active | S. cerevisiae UUG-firefly luciferase reporter, luminescence/redox ratio | activity score, % at 18.7 µM;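 active = replicate mean at a twofold rise or more, about +100% in these data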;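 note: firefly luciferase made from a UUG start codon reports start codon fidelity; reporter light over untreated wells divided by growth signal over untreated wells; some hits fall short of that in this replicate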
HIV Env fusion – HIV envelope-mediated fusion inhibition; inhibition, % at 12.3 µM; 360,000 tested, 1.1% active; HeLa-JRFL Env/CEM21 cell fusion, luciferase;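 active = mean replicate inhibition score of at least 50 and every replicate individually at or above 50; inconclusive = only one of the two criteria met; inactive = mean below 50 and not all replicates reaching 50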;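 note: 0% = plate neutral controls and 100% = maraviroc near 300 nM; one replicate is shown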
CSC inhib – cancer stem cell inhibition; cancer stem cell-like cells viability, luminescence; inhibition, % at 7.5 µM; 300,000 tested, 1.1% active;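 active = mean at 75% or more and at least half the replicates too; inconclusive = mean and replicates disagree; tested in HMLE shEcad cells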;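 note: 0% = median of negative and 100% = median of positive control wells; the first replicate is given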
Rce1 inh – blocks yeast Ras-converting enzyme. calls only. yeast membranes, quenched prenylated peptide cleavage fluorescence. 290,000 tested, 0.27% active. AID 2563;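 active = fall in fluorescence gain of 50% or more versus controls, with final raw signal at or below 3038400; inconclusive = same 50% fall but final raw signal above 3038400; inactive = fall in fluorescence gain under 50%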;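 note: plate controls were neutral control wells for no effect and wells lacking membranes for full effect; tested at 10 µM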
eIF4H FP inh retest – second read-out of eIF4H FP inh, no call of its own (marks repeat the call); inhibition, %; compound at 20 µM; confirmation average;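 mean of two retest wells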
PABP FP inh retest – further read-out of PABP FP inh, marked with its call; inhibition, %; compound at 20 µM; confirmation repeats;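 mean of two retest wells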
MT1-MMP act inh RFP – further read-out of MT1-MMP act inh, marked with its call; RFP signal change, %; measured here: RFP expression control read;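 0 = vehicle wells; hits needed this value within 50% of zero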
Starred values were filed as active, the others as inactive; i = inactive; ? = inconclusive; nt = no result given; & = joins results of further samples.

SMILES	eIF4H FP inh	MT1-MMP act inh	MT1-MMP act inh RFP	PABP FP inh	UUG fidelity	HIV Env fusion	CSC inhib	Rce1 inh	others
Nc1ccc(-c2nc3ccccc3s2)cn1	12	7	4	3	-6	-56	6	i
Cc1ccc(SCc2cc(=O)c3c(=O)n(-c4ccccc4)[nH]c3[nH]2)cc1	93	5	-5	19*	-17	9	-6	i	eIF4H FP inh retest=49;PABP FP inh retest=57*
COc1cccc(S(=O)(=O)NCc2ccc(C(=O)Nc3cccc(Cl)c3)cc2)c1	-4	-3	-22	-6	-9	nt	99*	i
CN(C)S(=O)(=O)c1cccc(N=C2NN=C(c3ccccc3)CS2)c1	-13	nt	nt	5	nt	16	17	nt
Cc1ccc(C)c(NC(=O)CN(C)C(=O)C2CCN(C(=O)Nc3ccccc3)CC2)c1	nt	1	-1	nt	nt	-10	nt	i
Fc1cccc(/C=N/Nc2nncc3ccccc23)c1	1	1	3	-8	-33	-158	20	i
COc1ccc(S(=O)(=O)N2CCCC2CNC(=O)C(=O)NC2CCCCCC2)cc1 (centres undefined)	nt	2	-9	nt	nt	1	-17	i
CC(=O)Nc1ccc(S(=O)(=O)N[C@H](C(=O)O)C(C)C)cc1	-11	3	2	6	-17	nt	12	i
COc1cc(OC)cc(C(=O)N/N=C2/SCC(=O)N2Cc2ccco2)c1	0	24	20	0	-1	-10	-7	i
COC(=O)c1sc(-c2ccccc2)cc1NC(=O)c1cc(OC)cc(OC)c1	5	5	1	11	nt	2	-16	i
O=C(CCS(=O)(=O)c1ccccc1Cl)NCc1ccc(F)cc1	4	0	3	-6	nt	-3	-11	nt
CCN(CC)S(=O)(=O)c1ccc(C(=O)N(c2ccc(C)cc2)C2C=CS(=O)(=O)C2)cc1 (centres undefined)	0	3	0	-7	nt	8	-6	nt
CCCc1nnc(NC(=O)CC(=O)Nc2ccccc2C(=O)O)s1	-4	-4	0	4	-15	nt	-3	i
COc1ccc(OCC(=O)Nc2cc3c(cc2C(=O)O)OCCCO3)cc1	0	1	-1	7	-15	-1	-5	i
COc1cc(CNCCc2c[nH]c3ccccc23)cc(Cl)c1OCC(N)=O	2	-1	-2	12	1	0	2	i
c1ccc(CN2CCN(c3nc4ccccc4s3)CC2)cc1	-6	7	-11	7	-13	-80	-8	i
COC(=O)C1CCN(C2CN(Cc3ccc(F)cc3)S(=O)(=O)C2)CC1 (centres undefined)	nt	3	5	nt	-11	-42	nt	nt
CCCCCNC(=O)c1ccc2c(=O)n(CCCN3CCCC3=O)c(=S)[nH]c2c1	3	4	-3	4	nt	-6	4	i
Cn1c(SCC(=O)NC(=O)Cc2ccccc2)nnc1-c1ccc(F)cc1	nt	0	0	nt	-26	-14	5	nt
CC1(C)N=C(N)N=C(N)N1c1ccc(OCCCOc2ccccc2)c(Cl)c1	-6	-5	-27	0	-5	2	85*	i
CCOC(=O)CSCc1cn2cc(Cl)ccc2n1	-2	4	0	-3	nt	nt	-10	i
COc1ccc(/C=C(\C#N)C(=O)Nc2cc(C)c(Cl)cc2OC)cc1O	-7	-7	3	0	nt	20	-4	i
CCOC(=O)C1C(=O)CC(=O)CC1CC(C)SCC (centres undefined)	-3	-1	0	8	-18	-26	2	i
CCOC(=O)/C(C#N)=C/C=C1/C=CC=CN1C	-1	-11	-2	-2	-6	-21	-12	i
COc1ccc(Cn2c(C(C)C)nc3sc4ccccc4c(=O)c3c2=O)cc1	-16	3	-17	-2	-13	3	11	i
COc1ccccc1NC(=O)/C(C#N)=C/c1ccc(OCCN2CCOCC2)c(OC)c1	6	0	1	7	-6	nt	-7	i
CC1(C)CC2CC(C)(CN2S(=O)(=O)c2ccc(C(=O)Nc3ccc(S(=O)(=O)N4CCOCC4)cc3)cc2)C1 (centres undefined)	-7	-12	-29	-7	nt	21	nt	i
CN1OC[C@@H]2CN(S(=O)(=O)c3cccc(C(F)(F)F)c3)[C@H](c3ccc(-c4cccnc4)cc3)C[C@@H]21	nt	-2	3	nt	-10	-44	nt	nt
O=C(NCC1CCCO1)c1nn2c(C(F)(F)F)cc(-c3ccco3)nc2c1Cl (centres undefined)	2	1	3	-2	3	-15	-3	i
Cc1cc2ncc(Cl)nc2cc1C	3	0	4	-2	nt	nt	-21	i
CC(Sc1n[nH]c(N)n1)C(=O)NC1CCCCC1C (centres undefined)	-7	1	2	-9	-29	-2	-1	i
O=C(NCCN1C(=O)S/C(=C\c2ccccc2F)C1=O)C1CCCN1C(=O)c1cccs1 (centres undefined)	-4	-6	-1	4	nt	3	-4	i
O=C(CSc1nnc(CNC(=O)c2cccs2)o1)Nc1ccccc1F	-18	1	1	3	-24	-1	-2	i
N/C(=N\OC(=O)c1ccc(Cl)cc1)c1[nH]ncc1Br	0	2	1	-7	-89	-114	18	i
COc1[nH]c2ccc(F)cc2c1C(=O)OCC1CCN(CCNS(C)(=O)=O)CC1	nt	4	-2	nt	13	0	-17	i
CN(C)CCCN(C(=O)c1ccc(S(=O)(=O)N2CCCCC2)cc1)c1nc2cc3c(cc2s1)OCO3	7	-1	-3	-14	-2	0	7	i
COc1cccc(NC(=O)c2ncc(Cl)c(Cl)c2Cl)c1	0	-3	-2	-5	-19	-12	-8	i
COc1ccc(-c2ccc(C(C)=O)cc2)cc1[C@H]1[C@H]2C=CC[C@@H](C)[C@@H]2C(=O)N1Cc1ccccc1	-4	-13	-19	-5	-9	26	19	i
COc1ccc(Cl)cc1C(=O)Nc1ccc(NC(=O)c2ccco2)cc1	-4	5	-1	-11	1	nt	nt	i
CCc1ccc(NC(=O)Cn2nnc(C(=O)NCc3ccc4c(c3)OCO4)c2N)cc1	0	-2	-2	0	-22	-5	-12	i
Fc1ccc(-c2nnc3ccc(N4CCCC4)nn23)cc1	-14	-1	-2	-8	-7	-15	-2	i
Cc1ccc2ccc(S(=O)(=O)NCc3ccco3)cc2c1	12	-2	-4	-5	-2	8	8	i
COc1ccc(-c2noc(CNS(=O)(=O)c3ccccc3)n2)cc1	-8	-4	-2	-2	5	11	-10	i
COc1cccc(CN2CC(C(=O)NCCCn3ccnc3C)CCC2=O)c1 (centres undefined)	-4	-1	2	0	-14	13	-13	i
CN(C)S(=O)(=O)c1ccc(N2CCCC2)c(C(=O)NNC(=O)COc2ccccc2Cl)c1	nt	3	1	nt	2	-1	10	i
CSCCC(NC(=O)c1ccccc1)C(=O)Nc1ccc(NC(C)=O)cc1 (centres undefined)	-1	nt	nt	-7	nt	-16	0	i
FC(F)(F)c1cccc(NC(=S)Nc2ccc(Cl)c(Cl)c2)c1	3	1	1	3	-41	13	42	i
CCN(CC)CCN1C(=O)C(=O)/C(=C(/O)c2c(C)[nH]c(C(=O)OC)c2C)C1c1cccnc1 (centres undefined)	-1	2	1	-2	1&-24	-59	-5	i
O=C(NCc1ccccn1)c1ccc(=O)oc1	-6	-6	-4	-4	-20	-60	-11	i
Cc1[nH]nc(N=CC2=C(O)CC(c3ccco3)CC2=O)c1-c1ccccc1 (centres undefined)	-1	6&-25	-6&-4	13	-4	-8&16	-2	i
COc1ccc(OCC(=O)N/N=C2\CCCCc3ccccc32)cc1	8	-1	0	-8	nt	-8	-9	i
Cc1cc2occ(CC(=O)Nc3nccs3)c2cc1C(C)C	-2	-1	-2	-1	-10	24	nt	i
COC(=O)c1ccc(C23CC4(C2)[C@H](CN(C)[C@@H]4c2ccccc2)C3c2ccccc2)cc1 (some centres undefined)	-8	3	-3	-2	2	10	7	i
O=C(c1ccccc1Cl)N(Cc1ccc(Br)cc1)N1C(=O)CCC1=O	0	2	-5	-4	nt	12	-9	i
Cc1cc(Sc2nnc(/N=C/N(C)C)s2)c2ccccc2n1	-4	-3	-9	-4	-19	56*	62	i
CCc1cccc(CC)c1-n1c(SCn2nnc3ccccc3c2=O)nnc1-c1cccnc1	-5	-5	-6	-7	-7	nt	-6	i
COc1ccccc1CN1CCNC(=O)C1CC(=O)N(C)Cc1ccon1 (centres undefined)	1	-3	6	2	nt	16	-15	nt
O=C(CSc1nccn1-c1cccc(Cl)c1)NC1CCCC1	3	8	3	3	-7	nt	-6	i
COc1ccc(/C=N/NC2=NS(=O)(=O)c3ccccc32)cc1OC(C)=O	-2	-5	-1	6	-11	6	-5	i
Cc1ccc(C)c(N(C(=O)c2ccco2)C(C(=O)NC2CCCC2)c2ccco2)c1 (centres undefined)	19	-3	-1	3	-13	9	-6	i
(next part)
SMILES	eIF4H FP inh	MT1-MMP act inh	MT1-MMP act inh RFP	PABP FP inh	UUG fidelity	HIV Env fusion	CSC inhib	Rce1 inh	others
CCN(CC)C(=O)c1csc([C@@H]2O[C@H](CO)[C@H](O)[C@H](O)[C@H]2O)n1	nt	1	8	nt	-11	11	nt	nt
Cc1ccc(S(=O)(=O)N2CCOCC2)cc1C(=O)N1CCC(Cc2ccccc2)CC1	-4	-4	-3	-10	8	0	nt	i
C(#Cc1c(-c2ccsc2)sc2ccccc12)c1ccsc1	nt	3	3	nt	-7	-15	33	nt
Cc1ccc(C)c(S(=O)(=O)N/N=C/c2ccc(F)cc2)c1	-6	3	0	-6	nt	9	2	i
COCc1c(C(=O)N/N=C/c2c[nH]c3ccccc23)nnn1-c1nonc1N	12	-1	2	0	-19	-12	nt	i
Cc1ccc(S(=O)(=O)N2CCOCC2)cc1NC(=O)COC(=O)CCC(=O)c1ccc(F)cc1	nt	-2	0	nt	5	-2	nt	nt
Cc1ccccc1NC(=O)CSc1nc2ccccc2c(=O)n1CC1CCCO1 (centres undefined)	-2	3	0	10	1	1	nt	i
O=C(NC1(C(F)(F)F)NC(=O)N(Cc2cccnc2)C1=O)c1ccccc1Cl (centres undefined)	-9	3	-1	2	-3	-8	12	i
COc1ccc(N(CC(=O)N2CCCC2)S(=O)(=O)c2ccc(NC(C)=O)cc2)cc1	4	5	7	16	-1	-6	-4	i
CC(C)(CNC(=O)C1CCN(S(=O)(=O)c2cc([N+](=O)[O-])ccc2Cl)CC1)N1CCOCC1	nt	2	7	nt	-9	1	nt	nt
NC(=O)CC(NC(=O)Cc1cccc2ccccc12)c1ccc(NCc2ccccc2)c([N+](=O)[O-])c1 (centres undefined)	-11	9	2	-8	-7	9	?	i
CCN1CCN(C(=O)c2ccc3c(=O)n(C4CCCC4)c(=S)[nH]c3c2)CC1	-1	1	-2	-8	-23	-43	64	i
O=C(NCc1cccs1)C1CCN(c2ccc(S(=O)(=O)N3CCOCC3)cc2Cl)CC1	-11	10	-10	7	0	-35	59	i
Cn1c(=O)c2c(nc(CN3CCc4ccccc4C3)n2Cc2ccc(Cl)cc2)n(C)c1=O	4	-1	0	-4	-15	nt	nt	i
COc1ccc(OC)c(C2C=C(c3ccc(C)c(C)c3)Nc3nnnn32)c1 (centres undefined)	-7	-3	-5	-4	-10	nt	71	i
CN(c1ccccc1)S(=O)(=O)c1ccc(Cl)c(C(=O)NC2=NCCS2)c1	4	1	-1	7	nt	9	-1	i
NC(=O)C(c1ccccc1)c1ccc(C(=O)c2ccccc2)cc1 (centres undefined)	-2	-3	-3	-4	-8	27	5	i
COc1ccc(NC(=O)c2cc(-c3cc(C)c(C)cc3O)n[nH]2)c(OC)c1	-3	1	0	1	-1	-11	nt	i
COc1ccc(COC(=O)C2CCN(S(=O)(=O)c3ccc(F)cc3)CC2)cc1	nt	3	1	nt	nt	-10	nt	i

Compounds as they come; about 3% have a hit in one of these screens.
